High-throughput results as filed in PubChem BioAssay.
VDR inh: Inhibitors of the vitamin D receptor (VDR): qHTS. Vitamin D3 receptor (Homo sapiens), P11473. VDR-SRC2-3 peptide fluorescence polarization, 2 h. Potency, µM, for the others: max response, negative = inhibition, actives largely listed as inhibitors. hit rate 0.93% among 400,000; active = well fitted inhibition curve with a large enough effect; inconclusive = small, poorly fitted or top-dose-only effect, or another doubt; inactive = no such curve, though single readings can be large or run the other way; note: series mostly up to about 120 µM
Target sequence (P11473 whole entry, looked up): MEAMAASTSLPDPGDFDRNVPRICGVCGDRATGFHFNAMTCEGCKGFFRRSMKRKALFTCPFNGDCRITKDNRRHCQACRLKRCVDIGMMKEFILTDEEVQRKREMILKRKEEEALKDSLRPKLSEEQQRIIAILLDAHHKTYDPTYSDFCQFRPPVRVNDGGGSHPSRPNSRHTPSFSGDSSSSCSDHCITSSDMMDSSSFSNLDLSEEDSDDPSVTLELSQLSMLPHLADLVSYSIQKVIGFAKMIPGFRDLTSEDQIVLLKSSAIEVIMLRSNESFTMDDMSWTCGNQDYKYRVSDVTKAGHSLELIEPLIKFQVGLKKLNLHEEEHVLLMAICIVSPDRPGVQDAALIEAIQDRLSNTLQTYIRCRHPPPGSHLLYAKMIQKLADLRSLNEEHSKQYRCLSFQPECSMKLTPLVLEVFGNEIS
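After 23 nl compound addition and a short centrifugation, plates sat for 2 hours at ambient temperature; polarization of fluorescence then indicated loss of VDR binding to peptide SRC2-3.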
Active calls of the source: *; ? = inconclusive; & = joins results of further samples. % is set by controls: 0 for no effect and ±100 for the full control effect; potency is the fitted concentration of half-maximal effect. Not all compounds are listed. The share of hits here may be higher or lower than overall.

VDR inh,mol
-21%,O=C(C1CC(=O)N(C2CCCC2)C1)N1CCN(c2ccc(F)cc2)CC1 (configuration not stated)
7%,CC(C)(C)NC(=O)NC(=O)CSc1nnc(-c2ccccc2F)n1N
23%,Cc1cc(C(=O)COC(=O)c2ccccc2Br)c(C)n1CC1CCCO1 (configuration not stated)
12%,Cc1ccc2nc(Cn3cc(C(F)(F)F)cc(Cl)c3=O)cc(=O)n2c1
6%,COc1ccc(NS(=O)(=O)c2ccc3oc(Nc4ccc5c(c4)OCCO5)nc3c2)cc1
9%,O=C(N/N=C/c1cccc(O)c1)NC1CCCCC1
-4%,Cc1cccc(CNC(=O)CCCN2C(=O)COc3ccc(C)cc32)c1
-9%,Cc1cccc(N/N=C/c2ccccc2O)c1
21%,CC12CC(c3ccccc3O1)N(C(=O)c1ccco1)C(=S)N2c1ccccc1 (configuration not stated)
-8%,O=C(NCc1ccco1)c1ccc2c(c1)N(Cc1ccccc1F)C(=O)c1ccccc1S2=O (configuration not stated)
-7%,O=C(Cn1cnc2ccccc2c1=O)NCCCN1CCCC1=O
-2%,CCOc1ccc(CCNC(=O)C2CCN(c3nnc(-n4cccc4)s3)CC2)cc1OCC
2%,CCCNC(=O)c1cnc(-c2ccccc2)nc1-c1ccccc1
-6%,COc1ccc(-c2cc(C(=O)N3CCCC3)c3ccccc3n2)cc1
1%,CN(CC(=O)NCC(c1ccco1)N1CCCCC1)S(=O)(=O)c1ccc(Cl)cc1 (configuration not stated)
-8%,N#CCCN1C(=O)C2(OCCO2)c2ccccc21
9%,CCOC(=O)[C@@H]1[C@H]2COc3cc(OC)ccc3[C@@H]2N2C(=O)N(c3cccc(F)c3)C(=O)[C@@]12C
-9%,COc1ccc(S(=O)(=O)N2CCOC2CNC(=O)C(=O)NCc2ccccn2)cc1 (configuration not stated)
-6%,O=C(c1cc(S(=O)(=O)N2CCOCC2)ccc1Cl)N1CCC(Cc2ccccc2)CC1
-7%,CCOCCCNC(=O)CN1C(=O)CCn2nc(-c3cccn3C)cc21

Next section
VDR inh,mol
-7%,CCCn1c2ccccc2c2nnc(SCC(=O)Nc3cccc(C(C)=O)c3)nc21
-8%,O=C(NC1CCCCCCC1)C1CCCN(S(=O)(=O)c2cnc[nH]2)C1 (configuration not stated)
1%,O=C1c2ccccc2C(=O)c2c(NCCc3ccc(O)cc3)ccc(NCCc3ccc(O)cc3)c21
7%,CC1CCN(CC(=O)Nc2nccs2)CC1
-18%,COc1ccc(S(=O)(=O)N2CCN(C(=O)CCc3c[nH]c4ccccc34)CC2)cc1
-8%,Cc1cc(C)nc(SCC(=O)N/N=C/c2cc(C)n(-c3ccccc3C)c2C)n1
0%,C=CC[C@@H](CC(=O)N[C@H](CO)Cc1ccccc1)C(=O)N[C@@H](COC(=O)[C@H](CC=C)CC(=O)OC(C)(C)C)Cc1ccccc1
-11%,Cc1[nH]c2ccccc2c1C(c1ccncc1)N1CCCCC1 (configuration not stated)
17%,Cc1ccc(C(=O)N2CCc3cc(CNC(=O)c4ccc(Br)cc4)ccc32)cc1
4%,Fc1cccc(Cl)c1-c1nnc2ccc3ccccc3n12
-11%,COc1ccc(C(=O)NCC(=O)N2CCCCC2)cc1OC
-1%,O=C(NCCN1C(=O)CCC1=O)c1ccncc1
-10%,Cc1ccc(NC(=O)c2cccnc2)cc1S(=O)(=O)N1CCOCC1
9%,O=C(CCc1ccccc1)Oc1ccccc1[N+](=O)[O-]
14%,CN(c1ccccc1)S(=O)(=O)c1ccc(C(=O)NCc2ccccc2CN2CCCC2)cc1
-5%,COc1cccc(-c2ccc(NC(=O)C3CCCN(Cc4cnc(C)s4)C3)cc2)c1 (configuration not stated)
-1%,CCN1CCN(c2ncnc3c2sc(=S)n3-c2ccccc2)CC1
-24%,CCC(C)NC(=O)CSc1c2c(nc3cc(Cl)ccc13)CCCC2 (configuration not stated)
3%,COc1ccc2oc(C(=O)NC(C)(C)C)c(C)c2c1
-30%,Cn1nnnc1SCC(=O)NC(=O)Cc1ccccc1

The list continues:
VDR inh,mol
1%,CCOC(=O)CSc1nnc(-c2ccoc2C)n1-c1ccc(C)cc1
10%,COC(=O)C(NC(=O)c1ccc(Cl)cc1)(Nc1nc(C)cs1)C(F)(F)F (configuration not stated)
-10%,O=C1CN(O)C=C2N=c3ccccc3=C2N1c1ccc([N+](=O)[O-])cc1
0%,COc1ccc2nc(Cl)c(C3CC(c4ccco4)=NN3C(=O)CCCC(=O)O)cc2c1 (configuration not stated)
-2%,Cc1ccn2c(Nc3ccc4c(c3)OCCO4)c(-c3ccccc3O)nc2c1
2%,Cc1ccc(NC=C(S(=O)(=O)c2ccccc2)S(=O)(=O)c2ccccc2)c(C)c1
-7%,COc1ccc(NS(=O)(=O)c2c(C)[nH]c(=O)[nH]c2=O)c(OC)c1
-14%,Cc1ccc(S(=O)(=O)n2c(C)nc3ccccc32)cc1
-15%,CC(=O)Nc1ccc(S(=O)(=O)Nc2nc3ccccc3nc2Nc2ccc(S(N)(=O)=O)cc2)cc1
14%,O=c1[nH]c(C(F)(F)F)nc2ccc3ccccc3c12
16%,N#Cc1c(N)nc(SCC(=O)NC2CCCCC2)c(C#N)c1-c1ccc(Cl)cc1
7%,NCC(O)(CS(=O)(=O)O)c1ccc(Cl)cc1 (configuration not stated)
15%,COc1ccc(-c2nn(-c3ccccc3)cc2C(=O)N(C)C)cc1
3%,COc1ccccc1C1=NOC(C(=O)N2CCN(C(=O)c3ccco3)CC2)C1 (configuration not stated)
18%,Cc1cc(C)c(NS(=O)(=O)c2ccc(Cl)c(C(=O)O)c2)c(C)c1
8%,Cn1c2ccccc2c2nnc(SCc3ccc4nonc4c3)nc21
6%,CCc1ccc(OCC(=O)NCCOc2ccccc2)cc1
2%,O=C(/C=C/Nc1ccc(Br)cn1)c1cccc(OC(F)F)c1
-19%,COc1cc(OC)cc(C(=O)Nn2cc(C(=O)Nc3c(F)cccc3F)c3ccccc3c2=O)c1
-8%,CCOC(=O)c1ccc(NC(=O)COc2cccc3c(=O)n(C)ccc23)cc1

Gathered by group, those above containing a nitro group on carbon (two)
VDR inh,mol
9%,O=C(CCc1ccccc1)Oc1ccccc1[N+](=O)[O-]
-10%,O=C1CN(O)C=C2N=c3ccccc3=C2N1c1ccc([N+](=O)[O-])cc1

The results go on.
VDR inh,mol
1%,COc1ccc(-c2noc(N3CCCC(C(=O)Nc4ccc(F)cc4F)C3)n2)cc1 (configuration not stated)
9%,COc1ccc(C(=O)N2C(=S)NC(=O)/C2=C\c2ccc(C)cc2)cc1
-3%,COc1cccc(N2CCN(C(=O)c3nc4nc(C)cc(C)n4n3)CC2)c1
-14%,CC(=O)N1CCc2cc(Br)cc(S(=O)(=O)CCC(=O)Nc3c(C)n(C)n(-c4ccccc4)c3=O)c21
21%,O=C(Nc1ccc2nc(-c3ccc(Br)o3)[nH]c2c1)c1ccco1
?,CCC(C)Nc1nc(Cl)nc(N(C#N)CN2C(=O)c3ccccc3S2(=O)=O)n1 (configuration not stated)
-2%,Cc1ccccc1NC(=O)/C(C#N)=C/c1ccc[nH]1
?,CC(=O)Nc1cccc(C(=O)N/N=C/c2cccc(C)n2)c1
0%,CCC(OC(=O)c1ccco1)C(=O)NCc1ccc2c(c1)OCO2 (configuration not stated)
?,CCC1NC(=O)C(NC(=O)c2ncccc2O)C(C)OC(=O)C(c2ccccc2)NC(=O)C2CC(=O)CCN2C(=O)C(Cc2ccccc2)N(C)C(=O)C2CCCN2C1=O (configuration not stated)
9%,CCCCOc1cccc(C(=O)Nc2ccc(S(=O)(=O)Nc3cc(C)on3)cc2)c1
3%,CC1CN(S(=O)(=O)c2ccc(CN3C(=O)c4cccnc4C3=O)cc2)c2ccccc2O1 (configuration not stated)
5%,COC(=O)c1ccccc1N1C(=O)C2C(C1=O)[C@H]1C=C[C@@H]2C1 (some centres not stated)
-6%,COC(=O)C1=C(C)NC(=O)NC1c1c(O)ccc2ccccc12 (configuration not stated)
12%,COc1ccc(C)cc1NC(=O)CNC(C)C(=O)Nc1ccc(C(C)=O)cc1 (configuration not stated)
5%,C[C@H](CO)N1C[C@H](C)[C@@H](CN(C)C(=O)NC2CCCCC2)Oc2c(NC(=O)c3ccncc3)cccc2C1=O
-11%,CCOC(=O)c1ccc(NC(=O)CC2C(=O)N(c3ccc(F)cc3)C(=O)N2Cc2ccc3c(c2)OCO3)cc1 (configuration not stated)
7%&0%,CCOc1ccc(N2CC(C(=O)NCc3nnnn3-c3ccc(C)c(C)c3)CC2=O)cc1 (configuration not stated)
6%,COc1ccccc1CC(=O)N1CCN(S(=O)(=O)c2cccs2)CC1
-4%,O=S(=O)(Nc1ccc(Br)cc1)c1cccc(NS(=O)(=O)c2cccs2)c1

Reformatted in markdown: part of the list above.
| Molecule | VDR inh |
| --- | --- |
| COc1ccc(C)cc1NC(=O)CNC(C)C(=O)Nc1ccc(C(C)=O)cc1 (configuration not stated) | 12% |
| O=S(=O)(Nc1ccc(Br)cc1)c1cccc(NS(=O)(=O)c2cccs2)c1 | -4% |

New compounds follow.
VDR inh,mol
-24%,O=C(Nc1ccc(N2CCN(C(=O)c3ccccc3)CC2)cc1)c1ccc2c(c1)OCCO2
-8%,C=C1CC2C(=O)N(Cc3ccccc3)C(C(=O)O)C1N2C(=O)OC(C)(C)C (configuration not stated)
-9%,CCN(C(=O)CSc1cc(C)c2cccc(C)c2n1)C1CCS(=O)(=O)C1 (configuration not stated)
-13%,COc1ccc(CN2CCN(S(=O)(=O)c3ccccc3)CC2)c(OC)c1OC
-19%,COCCn1c(=O)[nH]c2cc(C(=O)N3CCN(c4cc(C)ccc4C)CC3)ccc2c1=O
16%,O=C(Nc1cccc2ccccc12)NC1CCCc2ccccc21 (configuration not stated)
-12%,CCc1ccc(C(=O)C(C)OC(=O)c2cccc(S(=O)(=O)N3CCOCC3)c2)cc1 (configuration not stated)
-15%,CCc1n[nH]c(=S)n1/N=C/c1ccc(N(CC)CC)cc1
-8%,O=C(CN1CCN(c2ccc(F)cc2)CC1)Nc1ccccc1
8%,Fc1cc(Br)ccc1COc1ccc(-c2nnco2)cc1
-5%,O=C(NC(=S)NCCc1ccccn1)c1ccccc1
6%,CCC(=O)Nc1c(C#N)c2nc3ccccc3nc2n1C1CCCCC1
-26%,O=C(NCCSc1ccccn1)c1ccc(Cl)cc1Cl
-2%,Cc1ccc(NC(=O)c2cc(N3CCOCC3)nc3ccccc23)cc1
1%,O=C(Nc1ccc(S(=O)(=O)Nc2nccs2)cc1)c1cc(-c2ccncc2)nc2ccccc12
2%,Nc1c(C(=O)NC2CC2)c2nc3ccccc3nc2n1-c1ccc2c(c1)OCO2
4%,COCCn1nnnc1CN(Cc1ccco1)Cc1cc2cc3c(cc2[nH]c1=O)OCO3
-4%,CC(=O)c1cccc(NC(=O)C2CCCN2S(=O)(=O)c2cccc3nsnc23)c1 (configuration not stated)
-3%,Cc1ccc(-n2c(-c3ccccc3)c[n+]3c2CCc2ccccc2-3)c(C)c1
5%,O=C(N/N=C/c1ccco1)C12CC3CC(CC(C3)C1)C2

At a glance, 3 of the compounds above.
VDR inh,mol
-24%,O=C(Nc1ccc(N2CCN(C(=O)c3ccccc3)CC2)cc1)c1ccc2c(c1)OCCO2
-8%,C=C1CC2C(=O)N(Cc3ccccc3)C(C(=O)O)C1N2C(=O)OC(C)(C)C (configuration not stated)
-9%,CCN(C(=O)CSc1cc(C)c2cccc(C)c2n1)C1CCS(=O)(=O)C1 (configuration not stated)

Returning to the listing; the 6 compounds before the break are reprinted first.
VDR inh,mol
1%,O=C(Nc1ccc(S(=O)(=O)Nc2nccs2)cc1)c1cc(-c2ccncc2)nc2ccccc12
2%,Nc1c(C(=O)NC2CC2)c2nc3ccccc3nc2n1-c1ccc2c(c1)OCO2
4%,COCCn1nnnc1CN(Cc1ccco1)Cc1cc2cc3c(cc2[nH]c1=O)OCO3
-4%,CC(=O)c1cccc(NC(=O)C2CCCN2S(=O)(=O)c2cccc3nsnc23)c1 (configuration not stated)
-3%,Cc1ccc(-n2c(-c3ccccc3)c[n+]3c2CCc2ccccc2-3)c(C)c1
5%,O=C(N/N=C/c1ccco1)C12CC3CC(CC(C3)C1)C2
8%,Nc1nc(Nc2ccccc2F)nc(NC2CCCCC2)c1[N+](=O)[O-]
7%,CCOc1ccccc1CNC(=O)C1CCN(c2nnc(-n3c(C)ccc3C)s2)CC1
-13%,CC(C)Cc1nnc(NC(=O)CSc2nc(O)c(Cc3ccccc3)c(=O)[nH]2)s1
0%,CCCN1CN=C(NS(=O)(=O)c2ccc(C)cc2)NC1
-6%,O=C(COC(=O)C1=COCCO1)Nc1cc(Cl)c(Cl)cc1Cl
-20%,CCOC(=O)c1ccc(COC(=O)CCc2nc3ccccc3[nH]c2=O)o1
4%,Cc1nn(-c2ccc(F)cc2)c(C)c1/C=C/C(=O)N1CCNC(=O)C1
-9%,CCOc1ccc(CCN2C(=S)N([C@@H](CC(C)C)CN3CCCC3CN3C(=S)NC[C@@H]3Cc3ccc(O)cc3)C[C@@H]2Cc2ccccc2)cc1 (some centres not stated)
10%,COc1ccc(C(=O)NC(=S)N(C)C2CCCCC2)cc1
6%,COc1ccc(N2CCN(C(=O)CN3C(=O)C4CC=CCC4C3=O)CC2)cc1 (configuration not stated)
-15%,Cc1cc2c(cc1C)NC1(C(=O)Nc3ccccc31)C1=C(CC(C)(C)CC1=O)N2 (configuration not stated)
-17%,O=C(NCc1cccnc1)c1cc([N+](=O)[O-])ccc1N1CCOCC1
-9%,CCn1ccnc1C(O)c1cccc(OC)c1 (configuration not stated)
22%,COc1ccc(-c2ccc(C#N)c(SCC(=O)NCCc3ccccc3)n2)cc1OC
14%,COc1ccc(C(=O)NCc2ccc3c(c2)CCN3C(=O)c2ccccc2)cc1
35µM*,COc1ccc(C(=O)/C=C2/C(=O)Nc3ccccc32)c(OC)c1
17%,CC(C)(C)NC(=O)c1cccc(NC(=O)c2ccc(NC(=O)c3ccco3)cc2)c1
-1%,Fc1ccccc1Cc1noc(CN2CCC(OCc3cccnc3)CC2)n1
